Screens as filed in PubChem BioAssay.
ID4 SMM = ID4 (human) binding; P47928; small molecule microarray, Flag-ID4 binding, fluorescence F/B; calls only; 31,000 tested, 1.2% active; AID 624137;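 active = spot signal over background at p below 0.07 in all four prints; compounds were printed on slides so no solution concentration is given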;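 also: a binder raises fluorescence above local background on the spot; about 2 pmol printed per array spot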
Target sequence (P47928 whole entry, looked up): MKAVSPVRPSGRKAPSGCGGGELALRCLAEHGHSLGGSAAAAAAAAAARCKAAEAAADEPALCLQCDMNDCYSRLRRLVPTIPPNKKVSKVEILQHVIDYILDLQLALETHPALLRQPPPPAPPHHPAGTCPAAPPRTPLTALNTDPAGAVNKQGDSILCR
Calls only; i = inactive. Only part of the results is shown; the hit share may differ from the screen's.

SMILES | ID4 SMM
C[C@@H]1CN([C@H](C)CO)C(=O)c2cc(C#CC3CCCCC3)cnc2O[C@@H]1CN(C)S(=O)(=O)c1cccc(F)c1 | i
CC(C)[C@H](N)C(=O)OCCOCn1cnc2c(=O)[nH]c(N)nc21 | i
CN(C)C(=O)C[C@H]1CC[C@H](NC(=O)C2CCOCC2)[C@H](CO)O1 | i
CCNC(=O)C[C@H]1CC[C@@H](NC(=O)C2CCC2)[C@@H](CO)O1 | i
Cc1ccc(NC(=O)CN(c2c(C)cccc2C)S(C)(=O)=O)cc1C | i
COc1cccc(-c2nn(C)c3sc(C(=O)N4CCCCCC4)cc23)c1 | i
COc1ccc(NC(=O)COc2cc(C)cc(C)c2C)c([N+](=O)[O-])c1 | i
Cn1c(SCc2nn[nH]n2)nc2c1c(=O)n(Cc1ccccc1Cl)c(=O)n2C | i
CN(C)CCCN1C(=O)C(=O)C(C(=O)c2ccco2)C1c1cccc([N+](=O)[O-])c1 (stereo not given) | i
C[C@H]1CN([C@@H](C)CO)C(=O)c2cc(C#CCN(C)C)cnc2O[C@@H]1CN(C)C(=O)c1ccc(F)cc1 | i
CC(C)CC#Cc1ccc2c(c1)O[C@H](CN(C)Cc1cccnc1)[C@H](C)CN([C@H](C)CO)S2(=O)=O | i
CCS(=O)(=O)N[C@@H]1C=C[C@H](CC(=O)NCc2ccc(Cl)cc2)O[C@H]1CO | i
C[C@@H]1CN([C@@H](C)CO)C(=O)c2cc(C#CCc3ccccc3)cnc2O[C@H]1CN(C)C(=O)C1CC1 | i
COCC(=O)N(C)C[C@@H]1Oc2cc(-c3ccccc3F)ccc2S(=O)(=O)N([C@H](C)CO)C[C@@H]1C | i
O=C(C[C@@H]1CC[C@@H](NC(=O)C2CC2)[C@H](CO)O1)NC1CCC1 | i
Cc1nn(CC(=O)NCc2cccnc2)c(C)c1[N+](=O)[O-] | i
COC(=O)c1ccc(NC(=O)CSc2nnnn2-c2ccccc2OC)cc1 | i
CO[C@@H](C(=O)N(C)C[C@H]1OCc2ccccc2-c2c(n(C)c3ccccc23)C(=O)N([C@@H](C)CO)C[C@H]1C)c1ccccc1 | i
O=C(NCCCn1ccnc1)c1nn2c(C(F)(F)F)cc(-c3ccccc3)nc2c1Cl | i
O=C(NCC[C@@H]1CC[C@@H](NC(=O)C2CCC2)[C@@H](CO)O1)c1ccc(F)cc1 | i
C[C@@H]1CN([C@H](C)CO)C(=O)c2cc(NC(=O)C3CCCCC3)ccc2O[C@@H]1CN(C)C | i
COC(=O)c1c(-c2cccc(C)c2)csc1NC(=O)c1ccccc1[N+](=O)[O-] | i
Cn1c(SCC(=O)Nc2ccc3c(c2)OCCO3)nnc1-c1cnccn1 | i
COc1ccc(-c2nc3ccccc3s2)cc1NC(=S)NC(=O)COc1ccc(C)cc1 | i
COc1cc(-c2nnn(CC(=O)Nc3ccccc3C)n2)cc(OC)c1OC | i

The final 4 records of the part above come first, to join the parts.
SMILES | ID4 SMM
COC(=O)c1c(-c2cccc(C)c2)csc1NC(=O)c1ccccc1[N+](=O)[O-] | i
Cn1c(SCC(=O)Nc2ccc3c(c2)OCCO3)nnc1-c1cnccn1 | i
COc1ccc(-c2nc3ccccc3s2)cc1NC(=S)NC(=O)COc1ccc(C)cc1 | i
COc1cc(-c2nnn(CC(=O)Nc3ccccc3C)n2)cc(OC)c1OC | i
O=C(CSc1nc2ccccc2[nH]1)Nc1cccc(I)c1 | i
COc1ccc(-c2nnc(SCC(=O)Nc3cccc(F)c3)n2C)cc1 | i
O=C(C[C@H]1C=C[C@@H](NC(=O)Nc2cccc(F)c2)[C@H](CO)O1)NCC1CCCCC1 | i
CCOC(=O)c1c(NC(=O)CC2NCCNC2=O)sc2c1CCCC2 (stereo not given) | i
COCCOC(=O)N1C(=O)[C@@]2(c3cc(C#CCCO)ccc31)[C@H](C(=O)NC[C@H](O)c1ccccc1)[C@H]1C(=O)O[C@H](c3ccccc3)[C@H](c3ccccc3)N1[C@@H]2c1ccc(O)cc1 | i
COCC(=O)N[C@@H]1C=C[C@H](CC(=O)N2CCCCC2)O[C@@H]1CO | i
COC(=O)c1cc(C)sc1NC(=S)Nc1cnn(C)c1C(N)=O | i
Cc1cc(Br)ccc1NC(=O)CCCN1C(=O)c2ccccc2C1=O | i
C[C@@H]1CN([C@H](C)CO)S(=O)(=O)c2ccc(C#Cc3ccccc3)cc2O[C@@H]1CN(C)C(=O)C1CC1 | i
C[C@@H]1CN([C@H](C)CO)C(=O)c2cc(C3=CCCC3)cnc2O[C@@H]1CN(C)C(=O)CN(C)C | i
C[C@H]1CN([C@@H](C)CO)C(=O)c2cc(C#Cc3cccc(F)c3)cnc2O[C@H]1CN(C)C(=O)C1CC1 | i
C[C@@H](NC(=O)C[C@@H]1C=C[C@@H](NC(=O)Cc2ccccn2)[C@@H](CO)O1)c1ccccc1 | i
C[C@@H]1CN([C@@H](C)CO)S(=O)(=O)c2ccc(-c3ccccc3)cc2O[C@H]1CN(C)CC1CC1 | i
O=C(Nc1ccc2c(c1)[C@H]1C[C@@H](CC(=O)N3CCOCC3)O[C@H](CO)[C@H]1O2)Nc1ccccc1F | i
O=C(CCCC(=O)Nc1ccc2ccccc2c1)Nc1ccc2ccccc2c1 | i
CCc1c(O)nc(SC(C)C(=O)Nc2ccc(Cl)cc2)[nH]c1=O (stereo not given) | i
COC(=O)c1ccc(NC(=O)C2CCCCC2C(=O)O)cc1 (stereo not given) | i
Cc1ccc(C(=O)O)cc1S(=O)(=O)NCC1CCCO1 (stereo not given) | i
NC(=O)[C@@H]1[C@H]2C(=O)O[C@H](c3ccccc3)[C@H](c3ccccc3)N2[C@H](c2ccc(O)cc2)[C@@]12C(=O)Nc1ccccc12 | i
C[C@H](CO)N1C[C@H](C)[C@H](CN(C)C(=O)C2CCCCC2)Oc2cc(Br)ccc2S1(=O)=O | i
CC(=O)Nc1cccc(NC(=O)c2cc(-c3ccccn3)nc3ccc(Br)cc23)c1 | i
O=C(CSc1nc2ccccc2[nH]1)Nc1ccc(Br)cc1Cl | i
CC(C)NC(=O)N[C@@H]1CC[C@H](CC(=O)NCCCN(C)C)O[C@@H]1CO | i
CCCn1nnc(NC(=O)COc2ccc(C)cc2C)n1 | i
Cn1nnnc1SCCNCc1cccnc1 | i

Additional compounds:
SMILES | ID4 SMM
C[C@@H]1O[C@@H](O[C@@H]2[C@@H](O)[C@H](O[C@@H]3[C@@H](O)[C@@H](O)[C@H](O[C@H]4[C@H](OC(=O)[C@]56CCC(C)(C)C[C@H]5C5=CCC7[C@@]8(C)C[C@H](O)[C@H](O[C@@H]9O[C@H](C(=O)O)[C@@H](O)[C@H](O)[C@H]9O)[C@@](C)(CO)C8[C@H](O)C[C@@]7(C)[C@]5(C)C[C@H]6O)OC[C@H](O)[C@@H]4O)O[C@H]3C)OC[C@H]2O)[C@H](O)[C@H](O)[C@H]1O (stereo not given in full) | i
COC(=O)c1cc(NC(=O)CSc2nc(C)cc(C)n2)cc(C(=O)OC)c1 | i
O=C(CC(C(=O)O)N1CCCCC1)Nc1cccc([N+](=O)[O-])c1 (stereo not given) | i
C[C@@H]1CN([C@@H](C)CO)S(=O)(=O)c2ccc(Br)cc2O[C@H]1CN(C)C(=O)c1cnccn1 | i
COc1ccc(NC(=O)N(C)C[C@H]2Oc3cc(-c4cccc(C(=O)N(C)C)c4)ccc3S(=O)(=O)N([C@H](C)CO)C[C@@H]2C)cc1 | i
O=C(C[C@H]1C=C[C@H](NC(=O)C2CCC2)[C@H](CO)O1)NCC1CC1 | i
CC(C)C#Cc1ccc2c(c1)O[C@@H](CN(C)CC1CCCC1)[C@H](C)CN([C@@H](C)CO)S2(=O)=O | i
COc1cc(-c2coc3cc(OC)c(OC)c(OC)c3c2=O)cc(OC)c1OC | i
COc1ccccc1S(=O)(=O)N(C)C[C@@H]1Oc2ncc(-c3ccc(C)cc3)cc2C(=O)N([C@@H](C)CO)C[C@@H]1C | i
COc1ccc([Si](C)(C)[C@@H]2[C@@H](CCn3cc(CCO)nn3)O[C@]3(C(=O)N(Cc4ccc(N5CCC5=O)cc4)c4ccccc43)[C@H]2C)cc1 | i
O=C(Nc1cccc(OCC(=O)N2CCOCC2)c1)c1cccc([N+](=O)[O-])c1 | i
COc1ccc(-c2nnc(SCC(N)=O)n2-c2ccc(Cl)cc2)cc1 | i
COc1ccc(C(=O)COc2ccc(NC(=O)c3cccc([N+](=O)[O-])c3)cc2)cc1 | i
COc1ccc(CNC(=O)C[C@H]2CC[C@@H](NC(=O)CN(C)C)[C@@H](CO)O2)cc1 | i
CC(C)CC#Cc1ccc2c(c1)O[C@@H](CN(C)C)[C@@H](C)CN([C@@H](C)CO)S2(=O)=O | i
O=C(C[C@H]1CC[C@H](NC(=O)C2CCC2)[C@@H](CO)O1)NCc1ccccc1Cl | i
C[C@H](CO)N1C[C@H](C)[C@H](CN(C)C)Oc2cc(Br)ccc2S1(=O)=O | i
CNC[C@H]1Oc2ncc(-c3cncnc3)cc2C(=O)N([C@H](C)CO)C[C@@H]1C | i
CCOC(=O)C1CCCN(Cc2nc(N)nc(Nc3ccc(C)cc3)n2)C1 (stereo not given) | i
Cc1nn(Cc2cccc(C(=O)NCc3ccccn3)c2)c(C)c1Cl | i
Cc1ccc([N+](=O)[O-])cc1NC(=O)CSc1nnc(-c2ccc(Br)cc2)o1 | i
COc1ccccc1NC(=O)N[C@@H]1CC[C@@H](CC(=O)NCc2ccc(Cl)c(Cl)c2)O[C@@H]1CO | i
O=C(CSc1nc2ccc(C(=O)c3ccccc3)cc2[nH]1)Nc1cccc(Cl)c1 | i
CCCN(C)C[C@H]1OCCCC[C@H](C)Oc2ccc(N(C)C)cc2C(=O)N([C@H](C)CO)C[C@H]1C | i
O=C(C[C@@H]1C=C[C@@H](NS(=O)(=O)c2ccccc2)[C@@H](CO)O1)NCc1ccc(Cl)c(Cl)c1 | i

Three structures already listed, sorted by formula weight, ascending:
SMILES | ID4 SMM
Cc1nn(Cc2cccc(C(=O)NCc3ccccn3)c2)c(C)c1Cl | i
COc1cc(-c2coc3cc(OC)c(OC)c(OC)c3c2=O)cc(OC)c1OC | i
C[C@@H]1O[C@@H](O[C@@H]2[C@@H](O)[C@H](O[C@@H]3[C@@H](O)[C@@H](O)[C@H](O[C@H]4[C@H](OC(=O)[C@]56CCC(C)(C)C[C@H]5C5=CCC7[C@@]8(C)C[C@H](O)[C@H](O[C@@H]9O[C@H](C(=O)O)[C@@H](O)[C@H](O)[C@H]9O)[C@@](C)(CO)C8[C@H](O)C[C@@]7(C)[C@]5(C)C[C@H]6O)OC[C@H](O)[C@@H]4O)O[C@H]3C)OC[C@H]2O)[C@H](O)[C@H](O)[C@H]1O (stereo not given in full) | i

Next part:
SMILES | ID4 SMM
COC(=O)C1=C(C)NC(C)=C(C(=O)OCCSc2ccccc2)C1C (stereo not given) | i
COc1cc(Cl)c(C)cc1NC(=O)CN(C)S(=O)(=O)c1ccc2ccccc2c1 | i
CC(C)C1NC(=S)NC2=C1CCCC2 (stereo not given) | i
COc1cc(NC(=O)CSc2nc(C)cc(=O)[nH]2)c(OC)cc1Cl | i
O=C(CSc1nnc(-c2ccccc2)o1)Nc1cccc(F)c1 | i
C/C=C/c1ccc2c(c1)O[C@H](CN(C)C)[C@H](C)CN([C@@H](C)CO)S2(=O)=O | i
C[C@@H]1CN([C@H](C)CO)C(=O)c2cc(C3=CCCCC3)cnc2O[C@@H]1CN(C)C(=O)CN1CCOCC1 | i
CSc1nc(N)nc(SCC(=O)c2ccc(Cl)s2)c1C#N | i
C[C@@H]1CN([C@@H](C)CO)C(=O)c2cc(C#C[C@@H](C)O)cnc2O[C@@H]1CN(C)Cc1cccc(F)c1 | i
CC1(C)Cc2ccccc2C(CSc2nc3c(c(C(F)(F)F)n2)CCCC3)=N1 | i
Cc1cccc(NC(=O)CCc2nc(-c3ccc(Cl)cc3)no2)c1C | i
CC1(C)CC[C@]2(C(=O)O)CC[C@]3(C)C(=CCC4[C@@]5(C)C[C@@H](O)[C@H](O)[C@@](C)(CO)C5CC[C@]43C)[C@@H]2[C@@H]1O (stereo not given in full) | i
C[C@H]1CN([C@@H](C)CO)C(=O)c2cc(C#CCc3ccccc3)cnc2O[C@H]1CN(C)Cc1cccnc1 | i
Cc1ccc(OCC(O)Cn2c(C)nc3ccccc32)cc1 (stereo not given) | i
COc1cc(C)nc2nc(S(C)(=O)=O)nn12 | i
Cc1cccc(NC(=O)Cn2cnc3sc(-c4ccccc4)cc3c2=O)c1 | i
CCOC(=O)c1c(NC(=O)Cn2cnc3ccccc3c2=O)sc(C)c1C | i
CCOc1cc(S(=O)(=O)NC2CC(C)(C)NC(C)(C)C2)ccc1Cl | i
Cc1cc(C)nc(NS(=O)(=O)c2ccc(NC(=O)c3ccco3)cc2)n1 | i
O=C(CSc1nnc(-c2cccc(F)c2)n1-c1ccccc1)NC1CCCC1 | i
C[C@@H]1CN([C@@H](C)CO)C(=O)c2cc(-c3ccc(F)cc3)cnc2O[C@@H]1CN(C)C(=O)C1CCC1 | i
C/C=C/c1ccc2c(c1)O[C@@H](CN(C)C(=O)c1cccc(F)c1)[C@@H](C)CN([C@H](C)CO)S2(=O)=O | i
C[C@@H]1CN([C@H](C)CO)C(=O)c2c(c3ccccc3n2C)-c2ccccc2CO[C@@H]1CN(C)CC1CC1 | i
CCN1CCCC1CNC(=O)c1cc(S(N)(=O)=O)ccc1OC (stereo not given) | i
C[C@H](CO)N1C[C@H](C)[C@H](CN(C)C(=O)c2ccccc2F)Oc2ncc(Br)cc2C1=O | i
COCCOC(=O)N1C(=O)[C@@]2(c3cc(C#Cc4ccc(OC)cc4)ccc31)[C@H](c1ccc(O)cc1)N1[C@H](c3ccccc3)[C@H](c3ccccc3)OC(=O)[C@H]1[C@@H]2C(=O)N1CCCCCCC1 | i
Cc1c(Cl)cccc1NC(=O)CSc1nc2sc3c(c2c(=O)[nH]1)CCCC3 | i
O=C(CSc1nc2c(c(C(F)(F)F)n1)CCc1ccccc1-2)Nc1ccc(Cl)cc1 | i
COc1ccccc1CNC(=O)C[C@@H]1C[C@@H]2c3cc(NC(=O)CC4CC4)ccc3O[C@@H]2[C@@H](CO)O1 | i
CC(C)(C)c1cc(C(C)(C)C)n(-c2ccc(-n3cccc3)cc2)n1 | i
